# Source: PubChem
# Ecoli growth: E. coli growth inhibition; 330,000 tested, 0.21% active; OD600 absorbance (test concentration not listed); Escherichia coli growth, OD600, 23 h; active compounds read low;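 active = OD600 absorbance below the run mean of sample wells minus 3.6 SD, in any replicate, cut at about 0.56 in these data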;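 note: stock transfer was 300 nL into about 60 µL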
# Beta cell apopt: beta cell apoptosis inhibition; INS-1E cytokine-induced death, ATP luminescence, 48 h; percent of positive-control rescue, neutral wells zero; protection from apoptosis, % (concentration not given with the values); 300,000 tested, 0.8% active; AID 435005;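 active = all replicates at 75% or more, or half of them and the mean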;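 note: 0% = cytokine-treated negative control wells and 100% = positive control rescue; higher means more ATP so stronger rescue from cytokine killing; wells of about 40 µL received 100 nL stock; the first replicate is given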
# AF4-AF9 inh: MLL-AF4/AF9 protein interaction inhibition; P42568; AlphaScreen, biotin-AF4 peptide binding to FLAG-AF9; inhibition, % at 10 µM; 350,000 tested, 0.47% active; AID 651704;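 active = every replicate reaching a set inhibition limit, whatever the replicate mean, cut at about 25% in these data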;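 note: 0% = plate neutral control median and 100% = total signal loss; the record names both 10 and 1 µM as test concentration; the first replicate is given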
# Target sequence (P42568 whole entry, looked up): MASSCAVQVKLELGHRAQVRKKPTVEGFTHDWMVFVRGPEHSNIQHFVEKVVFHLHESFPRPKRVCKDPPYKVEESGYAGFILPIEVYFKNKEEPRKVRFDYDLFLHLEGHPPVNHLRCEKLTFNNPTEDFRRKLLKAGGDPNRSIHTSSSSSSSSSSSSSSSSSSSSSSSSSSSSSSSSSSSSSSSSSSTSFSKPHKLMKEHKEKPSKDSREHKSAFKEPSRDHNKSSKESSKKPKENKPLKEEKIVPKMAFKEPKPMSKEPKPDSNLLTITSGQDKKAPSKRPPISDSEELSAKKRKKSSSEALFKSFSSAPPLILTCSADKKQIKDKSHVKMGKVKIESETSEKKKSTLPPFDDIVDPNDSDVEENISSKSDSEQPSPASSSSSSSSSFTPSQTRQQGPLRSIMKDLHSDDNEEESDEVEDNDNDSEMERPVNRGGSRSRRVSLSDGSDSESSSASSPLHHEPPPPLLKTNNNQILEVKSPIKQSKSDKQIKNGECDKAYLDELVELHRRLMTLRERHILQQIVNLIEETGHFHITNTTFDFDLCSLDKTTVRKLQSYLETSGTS
# FGF22 binding: FGF22 (human) thermal shift binding | calls only at 9.99 µM | recombinant FGF22 thermal shift, SYPRO orange fluorescence; percent of sucrose octasulfate shift, DMSO zero | 340,000 tested, 1.5% active | Q9HCT0;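 active = melting point raised past a set limit in the mean and every replicate; three in four hits are not shown here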
# Target sequence (Q9HCT0 whole entry, looked up): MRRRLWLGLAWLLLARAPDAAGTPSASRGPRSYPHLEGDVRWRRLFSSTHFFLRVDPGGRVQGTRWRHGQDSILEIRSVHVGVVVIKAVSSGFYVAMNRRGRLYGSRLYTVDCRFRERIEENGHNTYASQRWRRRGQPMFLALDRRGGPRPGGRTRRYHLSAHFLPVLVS
# Ecoli rRNA inh: inhibits bacterial ribosomal RNA function over humanized ribosomes; E. coli WT GFP vs humanized-ribosome RFP mutants, fluorescence, 24 h; active compounds read low; DMSO median 0, no signal -100; AID 720706; 350,000 tested, 1.6% active; GFP signal change (wild-type ribosome), % (no concentration beside the values);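 active = significant combined selectivity score with lowered wild-type GFP, culture density cut under 30%, mutant RFP and density less affected; inactive = any of these conditions unmet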; note: one replicate is shown; some compounds called inactive have numbers as strong as hits
# UCH37 DUB inh: human UCH37 deubiquitinating enzyme inhibition. Q9Y5K5. 330,000 tested, 0.33% active. inhibition, % (concentration not given with the values). purified proteasome/UCH37, Ub-AMC cleavage fluorescence;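 active = mean of two replicates above 20%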;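 note: 0% = compound-free wells with enzyme and 100% = wells lacking proteasome; stock transfer was 100 nL into about 20 µL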
# Target sequence (Q9Y5K5 whole entry, looked up): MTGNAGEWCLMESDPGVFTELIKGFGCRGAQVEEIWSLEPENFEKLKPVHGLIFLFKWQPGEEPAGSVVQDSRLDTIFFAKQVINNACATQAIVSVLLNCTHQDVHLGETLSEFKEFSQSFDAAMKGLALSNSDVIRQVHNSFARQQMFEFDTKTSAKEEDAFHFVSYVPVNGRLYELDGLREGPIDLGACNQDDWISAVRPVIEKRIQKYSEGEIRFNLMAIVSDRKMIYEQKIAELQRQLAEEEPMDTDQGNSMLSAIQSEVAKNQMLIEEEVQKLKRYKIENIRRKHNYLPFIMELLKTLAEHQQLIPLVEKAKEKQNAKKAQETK
#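 assay system = human UCH37 enzyme supplied as purified proteasome complex | amount = proteasome at 0.15 nM in the dispensed enzyme solution | schedule = 30 min compound-proteasome preincubation then 25 min substrate reaction, room temperature | measured by = fluorescence, ex 355 nm, em 460 nm | benchmarks = no-proteasome wells (full inhibition) and compound-free wells (no inhibition)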
# T cruzi repl: blocks replication of Trypanosoma cruzi; inhibition, % (concentration not given with the values); 300,000 tested, 1.4% active; T. cruzi beta-gal in NIH3T3, luminescence, 90 h;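 active = mean inhibition across valid replicates above about 55%, limit read from the data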;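 note: signal also drops with host cell toxicity which is not excluded here; 0% = plate median of DMSO wells and 100% = zero luminescence signal; higher percent means less beta-gal luminescence so fewer parasites; stock transfer was 50 nL into about 50 µL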
# A1 inh: inhibitors of the anti-apoptotic protein A1, read as caspase activation. MEF A1-2A-BIM cells, Caspase-Glo 3/7 luminescence, 3 h; percent of clofoctol response, vehicle zero. caspase activation, % (test concentration not listed). AID 2462. 330,000 tested, 0.066% active;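 active = over half of replicate activation scores above 10%, or exactly half above 10 with the replicate mean above 10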;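 note: wells of about 30 µL received 50 nL stock; many hits fall short of the cut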
# Ecoli rRNA inh OD600: also measured in Ecoli rRNA inh; calls as there; OD600 change, %; measured here: OD600 growth;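 optical density of the mix in the first replicate; 0 = DMSO median and -100 = no signal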
# Ecoli rRNA inh RFP: also measured in Ecoli rRNA inh; calls as there; RFP signal change, %; measured here: RFP humanized mutant strains;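 first replicate; 0 = DMSO median and -100 = no signal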
# An asterisk follows results filed as active; i = inactive; x = not tested or not shown; + = active, no number. Only part of the results is shown; the hit share may differ from the screen's.
SMILES,Ecoli growth,Beta cell apopt,AF4-AF9 inh,FGF22 binding,Ecoli rRNA inh,Ecoli rRNA inh OD600,Ecoli rRNA inh RFP,UCH37 DUB inh,T cruzi repl,A1 inh
COc1ccccc1NC(=O)CN1C(=O)COc2ccc(S(=O)(=O)N3CCCCCC3)cc21,0.68,2,2.9,i,4,12,-0.7,3.8,1,-0.1
CCCC(=O)Nc1ccc(Cl)c(NC(=S)NC(=O)C(C)C)c1,0.66,8,-3.4,i,2,-1,1.7,1.1,14,-3.8
OC(CN1CCCCC1)CN1CCCCC1,0.7,4,x,x,x,x,x,4.8,-4,0.8
Cc1ccccc1CNc1ccc(C(CC(N)=O)NC(=O)c2ccccc2)cc1[N+](=O)[O-] (centres undefined),x,4,-30,i,12,19,-5.5,x,-7,0.1
COc1ccc(CNC(=O)c2ccccc2SC)cc1,0.73,-3,x,x,x,x,x,4.6,2,0.6
CC(C(=O)Nc1ccc(F)c(F)c1F)N(C)CCOc1ccccc1 (centres undefined),0.72,-8,-4.6,i,-40,-66,-13,-1.3,11,-0.2
CCOC(=O)c1sc(N)c(C#N)c1COC(=O)C1=COCCO1,0.66,-2,-5.0,i,12,4,7.1,1.9,x,0.5
CCCCCCCCCCCCOC1OC(CO)C(O)C(O)C1NC(C)=O (centres undefined),0.72,-1,-0.4,i,-12,-14,2.7,2.9,-2,0.0
CC[C@]12c3[nH]c4ccccc4c3CCN1C(=O)C(CC(=O)NCCCn1ccnc1)C[C@@H]2C(=O)N1CCN(C(=O)C2CC2)CC1 (some centres undefined),0.65,-3,-0.8,i,-1,2,-6.1,0.5,x,0.2
CC(C)(C)c1nc2ccccc2[nH]1,0.72,-1,x,x,x,x,x,0.6,-5,-0.3
COc1cccc(Oc2ccc(C(F)(F)F)cc2NC(=O)CN2C(=O)NC3(CCCC3)C2=O)c1,0.65,22,-1.8,i,1,10,-4.1,0.3,x,-0.5
Cc1c(Cl)cccc1NC(=O)CN1CCC(C(O)(c2ccccc2)c2ccccc2)CC1,0.72,0,x,x,x,x,x,2.4,62*,-0.3
Cc1ccccc1C(=O)Nc1ccc(-c2nnc(SC(C)C(=O)O)n2C)cc1 (centres undefined),0.71,-2,2.6,i,9,3,-3.7,3.2,14,0.0
S=c1[nH]nc(-c2cccnc2)n1/N=C/C(Cl)=C\c1ccccc1,x,-13,-14,i,6,22,15,x,-41,-0.1
COc1cc(OC)c(NC(C)C(=O)NCc2ccccc2)cc1Cl (centres undefined),0.67,1,2.3,i,14,14,-6.4,4.8,-58,0.0
CCOC(=O)N1CCC(N2Cc3cccc(C(=O)Nc4ccc(OCC)cc4)c3C2=O)CC1,0.66,3,-1.1,i,3,11,-1.5,-33,6,0.4
O=C(c1ccc(CNS(=O)(=O)c2cccc(Cl)c2)cc1)N1CCCCC1,0.73,x,-4.8,i,-21,-23,-1.2,1.0,17,-1.7
C/C(=N/NC(=O)c1ccncc1)c1ccc2c(c1)OCO2,x,0,0.6,i,7,20,5.7,x,-13,1.0
Cc1ccc(C2C(C#N)=C(N)OC3=C2C(=O)CCC3)s1 (centres undefined),0.69,-4,-0.8,i,21,17,-0.2,2.0,-10,0.2
COC(=O)c1cc(CSc2nnc(-c3ccccc3)c(-c3ccccc3)n2)oc1C,0.67,-4,x,x,x,x,x,2.1,18,0.5
COc1ccc(/C=N/N2CCOCC2)cc1OCc1ccccc1,x,-3,7.5,i,15,12,-1.9,x,-5,-0.6
O=[N+]([O-])c1ccc2[nH]c(=S)[nH]c2c1,0.7,x,-0.7,i,6,13,1.6,12,x,x
Clc1cccc(CSc2nnc([C@@H]3CCCN3)o2)c1,0.68,2,x,x,x,x,x,0.0,-3,0.1
NS(=O)(=O)c1ccc(CCNC(=O)COC(=O)/C=C/c2ccc(Cl)cc2)cc1,0.65,3,1.6,i,-4,-3,-0.9,4.5,5,-1.2
COc1ccc(OC)c(N/C(=N/c2nc(C)cc(C)n2)NC(C)=O)c1,x,-1,27*,i,5,5,0.3,x,-7,0.1

# Following part.
SMILES,Ecoli growth,Beta cell apopt,AF4-AF9 inh,FGF22 binding,Ecoli rRNA inh,Ecoli rRNA inh OD600,Ecoli rRNA inh RFP,UCH37 DUB inh,T cruzi repl,A1 inh
CCCc1nnc(NC(=O)c2c(O)c3cccc4c3n(c2=O)CC4)s1,0.66,0,x,x,x,x,x,-5.0,-10,-1.1
O=C(CSc1ccc2ccccc2n1)NCCCN1CCCC1=O,0.71,0,-0.8,i,4,3,1.6,1.4,x,1.0
O=C(NNC(=O)C1CCN(S(=O)(=O)c2ccc(Cl)cc2)CC1)c1ccccc1,0.7,0,-3.4,i,15,11,-0.8,4.3,-11,0.2
O=C(CN1CCOCC1)Nc1nc(-c2ccccc2Cl)cs1,0.67,3,-1.5,i,-8,-7,1.4,2.7,1,-2.7
Cc1cc(NC(=O)CSc2nnc(-c3ccccc3)o2)no1,0.71,3,3.0,i,-3,7,-1.9,2.8,-9,0.9
COc1ccc(C(=O)NCCCn2ccnc2)cc1,0.75,-2,x,x,x,x,x,0.1,-14,0.0
O=C1CCCc2nn(-c3ccccc3)c(-c3ccncc3)c21,0.69,-2,x,x,x,x,x,0.9,15,0.1
O=C(Cn1ncc(Cl)c(Cl)c1=O)N1CCOCC1,0.67,-29,-0.9,x,17,14,0.4,2.3,28,1.8
Cc1ccccc1OCCCC(=O)Nc1ccc(N2CCOCC2)cc1,0.69,5,x,x,x,x,x,2.3,23,-0.3
CCOc1ccc(-c2nc(CSCC(=O)NCCCN3CCCC3=O)c(C)o2)cc1,0.68,-8,-1.2,i,9,7,-1.2,4.9,0,0.1
O=C(CSc1ncccn1)N1CCCc2ccccc21,0.67,-5,0.3,i,3,-2,-1.9,3.2,-3,0.2
CC(C)(C)n1ncc2c(=O)n(CC(=O)N3CCCC3)cnc21,0.72,-4,-1.4,i,9,-3,-7.0,-1.3,-12,0.0
CC(C)Cc1nc(SCC(=O)NCC2CCCO2)c2c(=O)n(C)c(=O)n(C)c2n1 (centres undefined),0.73,3,-1.2,i,3,13,0.1,3.6,-5,-1.4
COC(=O)c1ccc(=O)c2nc3/c(=C/O)c(O)cc(=O)c3[nH]c12,x,-5,-3.8,i,-13,7,-22,x,x,0.3
CCOC(=O)c1cc(-c2ccccc2)sc1NC(=O)C(C)C,0.69,2,1.1,i,x,x,x,-5.3,24,1.0
CC(C)c1nnc(SCC(=O)NC(C)(C)C)n1C,0.69,x,-1.1,i,9,2,-0.3,2.7,-2,0.5
CCN1CCCC1CNC(=O)Cn1nc(C)n2c(cc3cc(F)ccc32)c1=O (centres undefined),0.64,2,-2.1,i,5,6,-0.1,-11,-9,-1.9
Nc1nnc(SCCCC(=O)c2ccccc2)s1,0.65,2,-0.8,i,3,-7,-2.9,2.0,-5,-0.8
Cc1nc(-c2ccc(F)cc2)c(CC(=O)Nc2cccc(S(=O)(=O)N3CCOCC3)c2)s1,0.7,3,-1.7,i,-8,-15,1.8,6.0,-12,0.1
COc1cccc(NC(=O)CN(C)C(=O)/C=C/c2cn(Cc3ccccc3)nc2-c2cccnc2)c1,0.69,2,5.0,i,-5,-13,1.6,3.4,20,-0.8
COC(=O)c1cc(S(=O)(=O)NCCN2CCOCC2)cn1C,0.73,x,2.0,i,-2,5,-6.7,1.2,-17,-0.4
Cc1nn(C)cc1S(=O)(=O)Nc1ccc2c(c1)OCCO2,0.65,-1,0.0,i,11,4,-0.9,0.4,0,0.1
Cc1ccc(C(=O)NC(=S)Nc2cccc3nsnc23)cc1,0.76,x,x,x,x,x,x,-3.9,-12,0.3
CCN(CC)C(=O)c1sc(NC(=O)c2ccc(OC)c([N+](=O)[O-])c2)c(C#N)c1C,0.66,8,x,x,x,x,x,6.3,-1,0.0
Cc1cc(C2=NNC(=NC3CC3)SC2)c(C)n1-c1c(C)n(C)n(-c2ccccc2)c1=O,0.68,-8,x,x,x,x,x,4.3,-13,-1.6

# (next part)
SMILES,Ecoli growth,Beta cell apopt,AF4-AF9 inh,FGF22 binding,Ecoli rRNA inh,Ecoli rRNA inh OD600,Ecoli rRNA inh RFP,UCH37 DUB inh,T cruzi repl,A1 inh
O=C(CCN1C(=O)c2ccccc2C1=O)N1CCC(c2ccccc2)C1 (centres undefined),0.69,0,x,x,x,x,x,1.9,-13,0.5
O=C(CSc1nc2cc(Cl)ccc2o1)c1cccs1,0.67,-5,x,x,x,x,x,-1.2,13,-0.2
O=C(OCC(CO)OC(CO)n1ccc(=O)[nH]c1=O)c1ccccc1 (centres undefined),0.7,1,x,x,x,x,x,4.8,-4,0.4
CCc1c(C)sc(NC(=O)c2cccs2)c1C#N,0.7,5,-1.7,i,4,11,9.1,-55,13,-1.4
Cc1cc(NC(=O)CSc2nc3c(c(=O)n2-c2ccc(Br)cc2)SCC3)no1,0.66,0,x,x,x,x,x,3.9,9,0.3
O=C(NC(=O)N1CCCc2ccccc21)c1ccccc1,0.73,-1,1.5,i,9,-1,2.7,2.8,-10,-0.7
COc1ccc(NC(=O)CN(c2ccc(C(C)C)cc2)S(=O)(=O)c2c(C)noc2C)cc1OC,0.78,2,-4.4,+,-2,6,-3.7,7.4,8,0.3
C=CC[C@@H](CC(=O)N[C@@H](CO)Cc1ccccc1)C(=O)N[C@H](COC(=O)[C@@H](CC=C)CC(=O)OC(C)(C)C)Cc1ccccc1,0.71,-5,1.8,i,1,4,-0.8,0.7,x,0.1
CCCCC(CC)CNC(=O)C1CCCN(S(=O)(=O)c2cnc[nH]2)C1 (centres undefined),0.75,x,-25,i,-2,0,0.1,4.8,0,0.4
Cc1nc2sccn2c(=O)c1Br,0.66,-2,x,x,x,x,x,1.4,-9,-0.1
COCCN1C(=O)/C(=C/c2cc3c(cc2Br)OCO3)NC1=S,0.64,7,1.0,i,-20,-27,6.0,6.3,4,-0.5
COc1cc2oc(-c3ccc(O)cc3)cc(=O)c2c(OC)c1O,x,x,-3.7,i,-12,-23,-4.6,x,5,x
CCn1c(SCC(=O)Nc2ccccc2Br)nnc1-c1cnccn1,0.66,-4,-2.8,i,-1,2,3.3,2.7,-10,-0.2
Cc1ccc(S(=O)(=O)N2CCN(Cc3ccco3)CC2)c(C)c1,x,4,3.5,i,-3,-16,-1.3,x,1,0.0
Cc1ccc(CNC(=O)CS(=O)Cc2nc(-c3cccs3)oc2C)cc1 (centres undefined),0.72,-12,1.1,i,-1,-5,-7.5,2.9,-1,-0.2

# Four entries picked at random from those above, as already listed:
SMILES,Ecoli growth,Beta cell apopt,AF4-AF9 inh,FGF22 binding,Ecoli rRNA inh,Ecoli rRNA inh OD600,Ecoli rRNA inh RFP,UCH37 DUB inh,T cruzi repl,A1 inh
COc1cc(OC)c(NC(C)C(=O)NCc2ccccc2)cc1Cl (centres undefined),0.67,1,2.3,i,14,14,-6.4,4.8,-58,0.0
NS(=O)(=O)c1ccc(CCNC(=O)COC(=O)/C=C/c2ccc(Cl)cc2)cc1,0.65,3,1.6,i,-4,-3,-0.9,4.5,5,-1.2
CCOc1ccc(-c2nc(CSCC(=O)NCCCN3CCCC3=O)c(C)o2)cc1,0.68,-8,-1.2,i,9,7,-1.2,4.9,0,0.1
COc1ccc(/C=N/N2CCOCC2)cc1OCc1ccccc1,x,-3,7.5,i,15,12,-1.9,x,-5,-0.6
